# NPYLR7 agonist: activates Aedes aegypti NPYLR7 receptor | 0.15% of 270,000 active | activation, % at 10 µM | HEK293T NPYLR7/Galpha15, GCaMP6s calcium fluorescence; in the data active = activation above about 40%;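 note: 0% = vehicle and 100% = reference agonist at the receptor; some compounds past the cut are filed as inactive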
# NPYLR7 agonist max-min: also measured in NPYLR7 agonist; calls as there; activation, %; measured here: Max-Min RFU normalised activation; some inactives read as strong as hits;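 span of the calcium signal over five minutes; 0% = vehicle and 100% = native peptide agonist; compound fluorescence can raise it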
# Active calls of the source: *; & = joins results of further samples. Some of the compounds tested; rates above refer to the full screens.
SMILES,NPYLR7 agonist,NPYLR7 agonist max-min
COc1cccc(C(NC(=O)C2CCN(CCOc3ccccc3)CC2)c2ccccn2)c1 (stereo not given),6.0,-7.5
CC(=O)Oc1ccccc1Cn1c(C)c(C(=O)NCc2cccc(Cl)c2)sc1=O,24.4,19.4
CCN(CC)C(=O)Oc1ccc2c(ccn2Cc2cc(Cl)ccc2Cl)c1-c1ccc(F)c(F)c1,14.1,10.3
Cc1noc(-c2cccc(F)c2)c1C(=O)NCCOC(C)C,1.9,13.7
Cc1ccc2nc(-c3ccccc3)cc(C(=O)Nc3cccc(Cl)c3)c2c1,-2.1,-4.9
CCc1c(C)nc(-c2cccc(C(F)(F)F)c2)nc1N1CCN(C(=O)Nc2ccc(OC)cc2OC)CC1,-6.1,-2.1
CC(C)(C)OC(=O)N1CCC(C(=O)NNC(=O)c2ccc3c(c2)OCO3)CC1,-4.7,-5.7
O=C(NCc1ccc2c(c1)OCO2)C1COC2(CCN(C(=O)c3ccc(Cl)cc3)CC2)N1C(=O)c1ccccc1 (stereo not given),0.6,1.1
CCCNC(=O)Cn1nc(C(C)C)c2cnn(-c3ccccc3C)c2c1=O,-2.0,-2.5
CN1CCN(c2cc(Cl)nc(SCc3ccc(C(=O)NCCN4CCCC4)cc3)n2)CC1,11.8,21.0
O=C(c1ccccc1C(F)(F)F)N1CCC(c2nc(-c3ccc(F)c(F)c3)no2)CC1,3.5,1.5
Cc1cnn(CCC(=O)NNC(=S)Nc2ccccc2)c1,-0.8,-1.3
CC(C)(C)c1cc(N2CCOCC2)nc(SCc2ccc(C(=O)N3CCCC3)o2)n1,9.4,10.2
CCCCCCCSc1nc(N)cc(=O)[nH]1,5.6,3.4
COC(=O)[C@H](c1ccccc1)n1ccnc1-c1ccc(OC)c(O)c1,4.9,3.9
CCCC(C)N1CC(C(=O)NC(C)c2ccc(F)c(F)c2)CC1=O (stereo not given),0.9,1.6
CCCCCCCCCCCn1c2ccccc2c2nc3ccccc3nc21,1.9,0.6
C1CN(c2nc(N3CCOCC3)nc(N3CCOCC3)n2)CCO1,-1.9,-2.8
CC(NC(=O)Cc1cccs1)c1nc(C(C)(C)C)cs1 (stereo not given),3.5,0.4
CCn1ncnc1CN(Cc1ccsc1)CC1CCCO1 (stereo not given),-4.9,-9.1
CCOc1ccc(Nc2cc(C)nc3c4c(C)cc(C)nc4nn23)cc1,1.5,33.0
Cn1c(=O)c2c(ncn2CC(O)CO)n(C)c1=O (stereo not given),-4.0&-1.8,-7.9&-3.8
COCC1(C(=O)N2CCNC(=O)C2CC(=O)OC)CCC1 (stereo not given),11.9,6.6
C=CCN(Cc1csc(COc2ccccc2C(C)C)n1)C(=O)c1cccc(OC)c1,-18.4,-8.2
Cn1ncc(Oc2cccc(C(F)(F)F)c2)c(Nc2cccc(C(=O)NCc3ccco3)c2)c1=O,3.2,10.8
Cc1cccc(Cn2nc(-c3cc(C)ccc3C)ccc2=O)c1,10.7,3.2
CC(C)c1csc(C(=O)Nc2ccc(CS(C)(=O)=O)cc2)n1,6.9,0.7
CCN(CC(=O)NC(C)C)Cc1cc(Cl)nc(Cl)c1,7.5,3.4
CN(C)S(=O)(=O)c1ccc(C(=O)NCc2n[nH]c(=S)n2-c2ccccc2)cc1,-4.7,-8.2
Cc1ccc(C(=O)NNc2nc(Nc3ccccc3)nc(N3CCCC3)n2)cc1,4.0,12.9
Clc1ccc(C(OCCCN2CCN(Cc3nccs3)CC2)c2ccc(Cl)cc2)cc1,1.7,-1.1
CCCCNC(=O)CS(=O)Cc1ccc(C(C)(C)C)cc1 (stereo not given),-2.0,-5.1
COc1cccc(N2CCN(c3nc(-c4cc5ccccc5o4)nc4ccccc34)CC2)c1,-1.1,10.9
Cc1ccc(-n2nc(C)c(CCC(=O)NC3CCOC3=O)c2C)cc1C (stereo not given),-5.3,-10.1
Cc1ccc(OC(C)C(=O)Nc2ccnn2C(C)C)cc1 (stereo not given),1.3,1.9
Cc1cc(C)n(-c2ccc(SC3CCCCNC3=O)nn2)n1 (stereo not given),-7.9,-5.6
N#CCCN(/N=C\c1cccc([N+](=O)[O-])c1)C1=NS(=O)(=O)c2ccccc21,-13.8,-21.0
COc1ccc(S(=O)(=O)NCc2ccsc2)c(C)c1,4.0,4.1
Cc1nc(-c2cccc(F)c2)nc(N2CCN(S(=O)(=O)c3ccc(Br)cc3)CC2)c1C,-1.1,5.0
Brc1ccc(OCc2nnc(-c3cccs3)o2)cc1,-1.7,-4.3
COc1cc2c(cc1C(=O)N1CC(c3ccncc3)C1)CCC2,14.8,6.3
Cc1cccc(C(=O)N2CCc3c(nc(N(C)C)nc3N(C)C)C2)c1C,-3.8,-2.8
COc1ccc2cc(CCNC(=O)C(C)(C)Oc3ccc(Cl)cc3)c(=O)[nH]c2c1,0.6,28.4
CCOc1ccc(-c2nc(COC(=O)c3nnn(-c4ccc(Br)cc4)c3C)c(C)o2)cc1,8.3,-2.5
Cc1nn(-c2ccc(N3CCCC3)nn2)c2c1C(c1cccc(O)c1)CC(=O)N2 (stereo not given),-14.1,-21.0
CCN(CC)C1=C(c2c(C)[nH]n(-c3cc(C)ccc3C)c2=O)C(=O)N(C2CCCCC2)C1=O,5.0,5.5
Cc1nc(C)c(Cc2ccc([N+](=O)[O-])cc2)c(N2CCN(C(=O)c3cccc(C(F)(F)F)c3)CC2)n1,-1.2,1.9
CCc1nccc(C2CC(=O)Nc3cc(OC)c(OC)c(OC)c32)n1 (stereo not given),6.7,2.9
CCn1cc(NC(=O)Nc2ccccn2)c2ccccc21,13.6,5.3
O=C(Nc1nn(Cc2ccc(C(F)(F)F)cc2)c2ccccc12)c1ccco1,9.0,16.5
COCC(=O)N1CCN(c2cc(Oc3ccc(F)cc3C)ncn2)CC1C (stereo not given),-9.2,-5.7
O=C(N1CCN(c2nccn2-c2ccccc2F)CC1)C12CC3CC(CC(C3)C1)C2,10.3,18.1
CC(C)(N)c1cn(C2CCN(Cc3cccn3-c3ncccn3)CC2)nn1,24.1,1.5
CCOC(=O)c1c(C)n(C)c2ccc(OC(=O)c3cccc(Br)c3)cc12,-10.4,-16.9
CN(Cc1ccc2c(c1)OCCO2)C(=O)Nc1ccc(F)cc1F,1.0,0.3
CC(CC(=O)N(C)Cc1cccn1C)c1ccc(F)cc1 (stereo not given),11.6,9.1
CCc1ccc(CN(Cc2ccccc2OC)C2CC2)nc1,5.5,4.2
O=S(=O)(NCC1CC2c3ccccc3C1c1ccccc12)c1cccs1 (stereo not given),4.2,2.0
CCCCCCc1ccc(C(=O)N2CCSC2c2ccc(OCc3ccccc3)cc2)cc1 (stereo not given),21.0,27.5
CCCc1ccccc1N1C(=O)CSC1c1ccc(NC(=O)c2ccc(OC)cc2)cc1 (stereo not given),-2.4,5.3
# New compounds follow:
SMILES,NPYLR7 agonist,NPYLR7 agonist max-min
O=C(CCC1CCN(C(=O)c2cccnc2)CC1)Nc1ccc(F)c(Cl)c1,4.9,-0.3
CC=CCn1c(SCCCCCCC)nc2c1c(=O)[nH]c(=O)n2C,5.8,5.6
CCc1c(C)nc(-n2nc(C)cc2NC(=O)/C=C/c2ccc([N+](=O)[O-])cc2)[nH]c1=O,-2.7,-1.9
Cc1nc2ccccc2c(=O)n1CCC(=O)NCc1cccs1,0.0,-1.6
CC(C)(C)OCCN1CCCCC1c1cn[nH]c1 (stereo not given),0.2,-6.9
COCCNC(=O)[C@@]1(OCc2cccc(Cl)c2)CC(OCc2cccc(C(F)(F)F)c2)[C@H](O)[C@H](O)C1 (stereo not given in full),25.4,14.0
Cc1cc(C)cc(C(O)c2ncc(-c3ccccc3C)[nH]2)c1 (stereo not given),-0.4,-0.4
CCC(C)NC(=O)c1csc(COc2cccc3ccccc23)n1 (stereo not given),10.6,8.2
COC(Cn1ccnc1-c1ccc2c(c1)OCCO2)c1cccs1 (stereo not given),5.1,2.4
O=C(CC1CSc2nccc(=O)n21)N1CCC(Cc2ccccc2)CC1 (stereo not given),-2.3,-5.0
COC(F)(C(=O)Oc1ccc2c(c1)oc1ccccc12)C(F)(F)F (stereo not given),1.0,41.7
O=C(Cn1nc2c(c1NC(=O)c1cccc(Cl)c1)CSC2)NCc1ccc(F)cc1,-3.3,-2.8
O=C(CC1NC(=O)c2ccccc21)NCCN1CCc2ccccc2C1 (stereo not given),3.5,-2.3
Cc1[nH]c2c(C(=O)Nc3ccc(F)c(N4CCCC4=O)c3)cccc2c1C,5.3,3.1
O=C(C1CC=CCC1C(=O)N1CCC(O)(Cc2ccccc2)CC1)N1CCN(c2ccccn2)CC1 (stereo not given),2.1,-4.5
COc1ccc(OCCNC(=O)C2(C)CCN2Cc2ccccc2Cl)cc1 (stereo not given),6.7,-1.4
O=c1c2sccc2nc(SCc2cc(=O)n3cc(Cl)ccc3n2)n1CCCN1CCCCC1,-5.2,-7.1
COc1ccc(-c2nc3cc(C)ccn3c2NC(=O)COc2ccc(Cl)cc2)cc1,-4.5,2.8
CC1=NN(CCN2CCCCC2)c2nc3c(c(=O)n(Cc4ccccc4C)c(=O)n3C)n2C1,2.4,5.9
CCOC(=O)c1cc(C(O)(C(F)(F)F)C(F)(F)F)c(N)o1,-3.8,-6.8

# Ordered by heavy-atom count (high to low): part of the list above
SMILES,NPYLR7 agonist,NPYLR7 agonist max-min
C=CCN(Cc1csc(COc2ccccc2C(C)C)n1)C(=O)c1cccc(OC)c1,-18.4,-8.2
O=C(N1CCN(c2nccn2-c2ccccc2F)CC1)C12CC3CC(CC(C3)C1)C2,10.3,18.1
N#CCCN(/N=C\c1cccc([N+](=O)[O-])c1)C1=NS(=O)(=O)c2ccccc21,-13.8,-21.0
CCOc1ccc(Nc2cc(C)nc3c4c(C)cc(C)nc4nn23)cc1,1.5,33.0
COC(F)(C(=O)Oc1ccc2c(c1)oc1ccccc12)C(F)(F)F (stereo not given),1.0,41.7
CCn1ncnc1CN(Cc1ccsc1)CC1CCCO1 (stereo not given),-4.9,-9.1
Brc1ccc(OCc2nnc(-c3cccs3)o2)cc1,-1.7,-4.3

# Additional compounds follow:
SMILES,NPYLR7 agonist,NPYLR7 agonist max-min
CCCCN(Cc1cccn1Cc1ccccc1Cl)C(=O)c1ccc(C)c([N+](=O)[O-])c1,-8.2,1.0
O=C(c1ccc(-c2noc(C3CC3)n2)cc1)N1CCC2(CCCO2)CC1,5.1,2.3
O=C(NCc1ccccc1Sc1ccccc1CO)c1cc(-c2ccco2)[nH]n1,-6.7,-11.0
CCOC(=O)CCC(=O)Nc1nnc(SCc2cccc(Cl)c2)s1,25.2,33.7
Cc1cc(Oc2cccc(Cl)c2)nc(SCc2ccccc2C)n1,14.4,23.9
CCOC(=O)C(C)c1c(C)n[nH]c1C (stereo not given),-0.1,-2.3
O=C(c1cc(F)c(F)c(F)c1F)N1CCOC(COCc2ccc(F)cc2Cl)C1 (stereo not given),-6.4,9.3
O=C(c1ccsc1)N1CCCN(CC(O)c2ccc(F)c(F)c2)CC1 (stereo not given),0.0,-1.2
CSc1nnc(C)c(=O)n1COC(=O)COc1ccc2ccccc2c1,1.1,-1.6
Cc1cnn(CC2CCN(C(=O)c3ccccc3C3CCNC3)CC2)c1 (stereo not given),0.9,-9.3
O=C(CNCCCN1CCOCC1)NC1CCCCCCC1,16.1,7.8
CNC(=O)c1nnc2n1CCN(C(=O)c1ccccc1Cl)C2,6.2,2.9
COc1cc(NCC(=O)N2CCCC(C)C2)cc(OC)c1 (stereo not given),1.0,0.0
Cc1ccc(-c2cc(C(F)(F)F)n3ncc(C(=O)Nc4ccc5c(c4)CCC5)c3n2)cc1,-5.4,-9.9
CS(=O)c1ccc(NS(=O)(=O)/C=C/c2ccccc2)cc1F (stereo not given),6.8,6.1
Cc1ccnc(NC(=O)C(C)NC(=O)c2ccccc2)c1 (stereo not given),7.6,3.5
O=C(C=Cc1ccc(Br)s1)Nc1cccc(S(=O)(=O)N2CCCC2)c1,0.4,12.3
O=C(/C=C/c1ccc2c(c1)OCO2)N[C@H]1C[C@H]2CC[C@@H]1C2,2.2,-1.4
CCC[n+]1ccn2c(C)ccc2c1C,-13.8,-21.5
CC(=O)c1csc(C(=O)Nc2ccccc2NS(C)(=O)=O)c1,-1.3,-2.6

# The final 2 entries of the section before are carried over, then new ones follow:
SMILES,NPYLR7 agonist,NPYLR7 agonist max-min
CCC[n+]1ccn2c(C)ccc2c1C,-13.8,-21.5
CC(=O)c1csc(C(=O)Nc2ccccc2NS(C)(=O)=O)c1,-1.3,-2.6
CC1CCCCN1C(C)CNC(=O)NCC1CCN(c2ccc(F)cc2)C1 (stereo not given),8.7,4.3
COc1ccccc1NC(=O)N(CC(=O)N1c2ccccc2-n2cccc2C1c1cccc(C)c1)C1CC1 (stereo not given),2.7,16.2
CCOCCn1c(=O)c2c(nc3n(CCc4ccccc4)c(C)c(C)n23)n(C)c1=O,4.2,2.7
O=C(NCCc1csc2nc(-c3cccc(F)c3)nn12)C1CC1,-2.2,-3.9
O=C(CC1CCCCC1)Nc1ccc(F)c(N2CCCC2=O)c1,-5.0,-6.1
NS(=O)(=O)c1ccc(NC(=O)CCCSc2ccc(NC(=O)C3CC3)nn2)cc1,-0.7,-2.8
COCc1cnc2c(c1SCC(=O)Nc1ccc(C(N)=O)cc1)c(=O)n(C)c(=O)n2C,5.1,9.6
CCc1ccc(NC(=O)CSc2nc(=O)n(CCN(CC)CC)c3c2CCC3)cc1,-0.4,-3.4
C=CCN1CC(O)CN(C(=O)c2ccc(C)cc2)CC1=O (stereo not given),3.3,15.7
CCc1nc2ccc(C(=O)NCc3ccccc3OC)cn2c1N(C)Cc1cccs1,9.1,-3.7

# Screening data as filed in PubChem.
